HSV replic up: HSV replication enhancement | HSV replication augmentation in cells, fold increase | maximum fold increase | 0.005% of 220,000 active | AID 1956;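 active = peak rise of 1.5-fold or more in the series; tested in PC3 cells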;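 note: first round at 10 µM; read as green reporter fluorescence; hits show the peak of a series up to 25 µM; 1 = signal of infected wells without compound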
INS promoter inh: TRM-6 insulin promoter activity inhibition. 0.9% of 130,000 active. AID 1273. inhibition, % at 2 µM. TRM-6 cells (human fetal islet line), insulin promoter-eGFP reporter, imaging; reporter expression induced with tamoxifen;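 active = inhibition above the mean plus 3 SD, with well images judged a real hit on visual review, cut at about 60% in these data, passing the limit was not always enough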
PKD1 kinase inh: inhibitors of human PKD1 kinase; 0.056% of 200,000 active; PKD1 kinase fluorescence polarization assay; inhibition, %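 (about 10 µM by stock and volumes)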;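 active = inhibition of 50% or more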;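 note: controls were vehicle for no effect and a reference inhibitor for full effect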
RGS16-Gao: RGS16-Galphao interaction regulator (human); bead-based flow cytometry RGS16-Galphao binding, fluorescence; actives lie on both sides; binding response (% of control), % at 10 µM; 0.38% of 220,000 active;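 active = below 25% or above 175%, edge rows of some plates excepted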;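 note: Galphao activated by GDP with aluminum fluoride before binding; 100% = wells without compound and 0% = beads without RGS; some results beyond the cut were filed as inactive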
Target sequence (O15492 whole entry, looked up): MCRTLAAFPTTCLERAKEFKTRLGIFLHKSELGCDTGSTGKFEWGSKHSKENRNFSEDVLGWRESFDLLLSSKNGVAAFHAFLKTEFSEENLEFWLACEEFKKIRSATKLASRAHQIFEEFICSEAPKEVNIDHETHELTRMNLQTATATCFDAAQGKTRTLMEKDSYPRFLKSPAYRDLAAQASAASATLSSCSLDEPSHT
Target sequence (P09471 whole entry, looked up): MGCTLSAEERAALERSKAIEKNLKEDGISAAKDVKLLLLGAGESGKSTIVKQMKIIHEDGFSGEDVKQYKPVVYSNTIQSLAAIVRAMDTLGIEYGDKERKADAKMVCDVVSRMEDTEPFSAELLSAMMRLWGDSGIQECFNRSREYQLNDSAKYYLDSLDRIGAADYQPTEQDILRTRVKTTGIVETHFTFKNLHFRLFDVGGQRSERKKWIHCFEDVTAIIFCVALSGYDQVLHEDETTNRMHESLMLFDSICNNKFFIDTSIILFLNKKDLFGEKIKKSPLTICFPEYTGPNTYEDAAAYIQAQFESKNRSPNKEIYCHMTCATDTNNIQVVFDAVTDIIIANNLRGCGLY
GALR2 agonist: agonists of human galanin receptor 2 (GALR2); O43603; GALR2-expressing cells, agonist activation read-out; activation, %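 (tested at 5 µM)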; 0.48% of 140,000 active; AID 803;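 active = above mean plus 3 SD of all compounds, about 5% in these data, not always enough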;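 note: 0% = vehicle buffer wells and 100% = reference agonist at full effect; tested in CHO reporter cells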
Target sequence (O43603 whole entry, looked up): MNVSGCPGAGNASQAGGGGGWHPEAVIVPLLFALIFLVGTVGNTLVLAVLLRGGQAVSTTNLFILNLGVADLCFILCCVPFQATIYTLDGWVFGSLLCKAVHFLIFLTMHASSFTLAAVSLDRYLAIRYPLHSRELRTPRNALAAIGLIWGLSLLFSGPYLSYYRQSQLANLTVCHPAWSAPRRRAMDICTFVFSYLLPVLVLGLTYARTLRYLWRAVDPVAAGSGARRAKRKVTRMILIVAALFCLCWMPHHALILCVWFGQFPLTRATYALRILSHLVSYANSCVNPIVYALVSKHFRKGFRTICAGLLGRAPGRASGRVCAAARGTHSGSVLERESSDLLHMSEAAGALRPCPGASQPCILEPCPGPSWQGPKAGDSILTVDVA
INS promoter inh cell count: second read-out of INS promoter inh, no call of its own (marks repeat the call); normalized cell count, %; measured here: cell count, toxicity; reference of the scale not given here;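 cells exposed to compound for 48 h; stained nuclei by imaging scaled within each plate; lower means fewer cells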
HSV replic up primary fold: further read-out of HSV replic up, marked with its call; fold increase; compound at 10 µM; measured here: primary screen fold increase 10 uM; tested in PC3 cells;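 GFP signal in the first replicate; 1 = infected wells without compound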
Numbers without * were called inactive; i = inactive; nt = not tested or not shown. Compounds as they come. About 1.3% of those tested had a hit in this group.

Preview (2 entries):
SMILES	HSV replic up	HSV replic up primary fold	INS promoter inh	INS promoter inh cell count	PKD1 kinase inh	RGS16-Gao	GALR2 agonist
N#Cc1c(N)nc2c(c1-c1ccc(F)cc1)CCC2	i	0.91	nt	nt	nt	95	nt
Cc1ccc(S(=O)(=O)NCC2CCC(C(=O)NCc3cccnc3)CC2)cc1 (centres undefined)	i	0.97	14	76	-5	99	nt

This part in full, from the start:
SMILES	HSV replic up	HSV replic up primary fold	INS promoter inh	INS promoter inh cell count	PKD1 kinase inh	RGS16-Gao	GALR2 agonist
N#Cc1c(N)nc2c(c1-c1ccc(F)cc1)CCC2	i	0.91	nt	nt	nt	95	nt
Cc1ccc(S(=O)(=O)NCC2CCC(C(=O)NCc3cccnc3)CC2)cc1 (centres undefined)	i	0.97	14	76	-5	99	nt
O=C(NCCc1ccccc1)C(=O)c1c(-c2ccccc2)[nH]c2ccccc12	i	1.1	29	109	-5	nt	-0.9
CC(=O)Nc1cc(C(=O)OCC(=O)c2ccc(Cl)cc2Cl)ccc1C	i	1	nt	nt	-2	84	-1.9
Cc1ccnc(NS(=O)(=O)c2ccc(N3C(=O)c4c(Cl)c(Cl)c(Cl)c(Cl)c4C3=O)cc2)n1	i	0.94	46	94	2	117	-1.0
c1ccc(-n2ncc3c(NCc4cccnc4)ncnc32)cc1	i	0.92	-73	121	-18	100	-2.0
O=C(NC(=S)N1CCOCC1)c1cc2ccccc2o1	i	1.1	nt	nt	5	99	nt
COc1ccc(-c2nn3c(-c4ccccc4)nnc3s2)cc1	i	0.75	3	93	0	102	-1.7
O=C(O)c1ccc(CSc2nnc(COc3ccccc3)o2)cc1	i	0.9	nt	nt	7	104	nt
COc1cc(OC)c2ccc(=O)oc2c1C(CC(=O)N1CCOCC1)c1ccc2c(c1)OCO2 (centres undefined)	i	0.79	nt	nt	nt	103	nt
COCCCN(Cc1ccccn1)S(=O)(=O)Cc1ccccc1	i	0.92	16	95	-1	100	-1.2
O=S(=O)(Cc1ccccc1Cl)NCCc1ccccc1	i	0.85	11	108	-3	108	nt
CCN(CC)S(=O)(=O)c1ccc(C(=O)Nc2nnc(COC)o2)cc1	i	0.93	nt	nt	-15	98	nt
O=C(CC1CCCCC1)NCCOc1ccccc1	i	1	0	112	-3	92	-0.9
N#Cc1cccnc1N1CCN(C(=O)c2ccco2)CC1	i	1.1	nt	nt	nt	100	nt
CN(CC1CCOCC1)C(=O)CC1C(=O)NCCN1Cc1ccc(Cl)c(F)c1 (centres undefined)	i	0.99	nt	nt	nt	73	nt
CCN(CC)c1ccc(NC(=S)NC(=O)Cc2ccccc2)cc1	i	0.85	33	116	-2	105	0.3
Clc1cccc(Nc2ncnc3ccc(Br)cc23)c1	i	0.88	13	83	-3	108	-0.7
Nc1c(C(=O)NC2CCCC2)sc2nc(-c3cccs3)ccc12	i	0.98	-53	75	-9	96	-2.2
COc1cc2c(cc1N/C=C(\C#N)c1nc(-c3ccccc3)cs1)oc1ccccc12	i	1.1	-135	105	0	94	nt
O=C(O)c1cccc(NS(=O)(=O)c2cccc3nsnc23)c1	i	1.2	7	126	-1	110	0.1
Nc1c(C(=O)O)sc2nc3c(cc12)CCCC3	i	0.89	nt	nt	nt	98	nt
CN(C)/C=C(\C(=O)c1cccc(Cl)c1)c1nnnn1-c1ccccc1	i	1	nt	nt	nt	93	nt
Cc1ccc(C(C)C)c(OCC(=O)OCc2c(C)noc2C)c1	i	0.99	nt	nt	-1	107	-0.6
O=C(CN1C(=O)COc2ccc(S(=O)(=O)N3CCCC3)cc21)NC1CCCCCCC1	i	0.91	nt	nt	-9	37	-0.2

(cont.)
SMILES	HSV replic up	HSV replic up primary fold	INS promoter inh	INS promoter inh cell count	PKD1 kinase inh	RGS16-Gao	GALR2 agonist
O=C(CSc1nnc(-c2ccc(F)cc2)o1)NC1CCCCC1	i	0.96	nt	nt	-2	113	nt
CN(C)c1nc(OCCOC(=O)Nc2ccc(Cl)cc2Cl)nc(N(C)C)n1	i	1	nt	nt	2	102	-0.5
Cn1c2ccccc2c2ncn(Cc3ccc(F)cc3)c(=O)c21	i	0.81	nt	nt	nt	103	nt
O=C(NCC(=O)N1CCN(S(=O)(=O)c2cccs2)CC1)c1ccc(Cl)cc1	i	0.85	11	111	-9	102	nt
N#CC(=C=[N-])C1=C(C#N)C(c2ccccc2F)C([n+]2ccccc2)C(O)(C2CC2)N1 (centres undefined)	i	0.92	38	121	0	62	-3.8
CCCCNC(=O)C1CC(c2ccccc2[N+](=O)[O-])=NO1 (centres undefined)	i	1.1	-161	143	-5	98	-3.7
O=C(CN1C(=O)NC2(CCCCC2)C1=O)Nc1ccc(S(=O)(=O)N2CCOCC2)cc1	i	1	-41	172	0	102	-1.5
COc1ccccc1N(CC(=O)N/N=C/c1ccc(SC)cc1)S(C)(=O)=O	i	0.94	14	99	-2	90	-0.3
Cc1ccccc1NC(=O)c1cc2ccccn2n1	i	0.9	nt	nt	nt	120	nt
COC(=O)C(Cc1cnc(Cl)s1)(C(=O)OC)c1ccc([N+](=O)[O-])cc1[N+](=O)[O-]	i	0.98	-19	92	-6	117	-3.1
CC(=O)C1C(c2ccc(F)cc2)C2C(C)=NN=C2CC1(C)O (centres undefined)	i	0.96	21	98	5	106	-0.7
Nc1ccc2c(c1)OC1(CCCC1)O2	i	1.2	nt	nt	2	93	nt
Cc1nnc(SCC(=O)NC(C)(C)C)n1CCc1ccccc1	i	0.89	37	52	-11	89	0.3
COc1ccc(NC(=O)CCN2CCN(S(=O)(=O)c3ccc(OC)cc3)CC2)cc1	i	0.9	-24	131	-2	107	nt
O=C1NC(c2ccccc2)=C(c2ccc3ccccc3n2)C(c2ccncc2)N1 (centres undefined)	i	0.95	-42	96	-10	103	-2.0
Cc1cc(NCc2ccccn2)n2c(nc3ccccc32)c1C#N	i	1.3	-33	40	6	98	nt
COc1cnc(N(C)C)nc1Sc1cccc(Cl)c1	i	0.91	16	107	0	104	-0.7
COc1ccc(-n2c(COc3cccc(C)c3)nnc2SCC(=O)NCc2ccco2)cc1	i	0.99	53	96	-10	102	0.0
COc1ccc(COC(=O)Nc2cn(C)nc2C(F)(F)F)cc1	i	0.97	-12	106	7	102	nt
CCOC(=O)c1ccc(NC(=O)c2ccccc2N(C)S(=O)(=O)c2ccccc2)cc1	i	0.93	nt	nt	-4	94	-1.2
CS(=O)(=O)N1CCC(C(=O)N2CCc3ccccc3C2)CC1	i	1	15	112	-10	104	-0.1
O=C(Cn1[nH]c(=O)c2ccccc2c1=O)Nc1ccc(-c2nnc3n2CCCCC3)cc1	i	0.73	nt	nt	0	101	-1.4
CC1(C)CC(=O)N(Cc2ccccc2)C(=O)C1	i	1.1	nt	nt	-11	104	-0.9
COc1ccc(NC(=O)c2cccnc2SC)cc1S(=O)(=O)N1CCCCC1	i	0.87	nt	nt	7	101	0.1
CN(C)CCOc1cccc(Cl)c1	i	0.99	20	96	13	113	0.0

Part of the list above in order of heavy-atom count, descending:
SMILES	HSV replic up	HSV replic up primary fold	INS promoter inh	INS promoter inh cell count	PKD1 kinase inh	RGS16-Gao	GALR2 agonist
COc1cc(OC)c2ccc(=O)oc2c1C(CC(=O)N1CCOCC1)c1ccc2c(c1)OCO2 (centres undefined)	i	0.79	nt	nt	nt	103	nt
COc1ccc(-n2c(COc3cccc(C)c3)nnc2SCC(=O)NCc2ccco2)cc1	i	0.99	53	96	-10	102	0.0
O=C(Cn1[nH]c(=O)c2ccccc2c1=O)Nc1ccc(-c2nnc3n2CCCCC3)cc1	i	0.73	nt	nt	0	101	-1.4
CCOC(=O)c1ccc(NC(=O)c2ccccc2N(C)S(=O)(=O)c2ccccc2)cc1	i	0.93	nt	nt	-4	94	-1.2
COc1ccc(NC(=O)CCN2CCN(S(=O)(=O)c3ccc(OC)cc3)CC2)cc1	i	0.9	-24	131	-2	107	nt
O=C1NC(c2ccccc2)=C(c2ccc3ccccc3n2)C(c2ccncc2)N1 (centres undefined)	i	0.95	-42	96	-10	103	-2.0
COc1ccc(NC(=O)c2cccnc2SC)cc1S(=O)(=O)N1CCCCC1	i	0.87	nt	nt	7	101	0.1
CN(C)c1nc(OCCOC(=O)Nc2ccc(Cl)cc2Cl)nc(N(C)C)n1	i	1	nt	nt	2	102	-0.5
CCN(CC)S(=O)(=O)c1ccc(C(=O)Nc2nnc(COC)o2)cc1	i	0.93	nt	nt	-15	98	nt
O=C(O)c1ccc(CSc2nnc(COc3ccccc3)o2)cc1	i	0.9	nt	nt	7	104	nt
Cc1nnc(SCC(=O)NC(C)(C)C)n1CCc1ccccc1	i	0.89	37	52	-11	89	0.3
CS(=O)(=O)N1CCC(C(=O)N2CCc3ccccc3C2)CC1	i	1	15	112	-10	104	-0.1
N#Cc1cccnc1N1CCN(C(=O)c2ccco2)CC1	i	1.1	nt	nt	nt	100	nt
O=S(=O)(Cc1ccccc1Cl)NCCc1ccccc1	i	0.85	11	108	-3	108	nt
O=C(CC1CCCCC1)NCCOc1ccccc1	i	1	0	112	-3	92	-0.9
Nc1c(C(=O)O)sc2nc3c(cc12)CCCC3	i	0.89	nt	nt	nt	98	nt
Nc1ccc2c(c1)OC1(CCCC1)O2	i	1.2	nt	nt	2	93	nt
CN(C)CCOc1cccc(Cl)c1	i	0.99	20	96	13	113	0.0

Later entries
SMILES	HSV replic up	HSV replic up primary fold	INS promoter inh	INS promoter inh cell count	PKD1 kinase inh	RGS16-Gao	GALR2 agonist
NC(=O)CSc1nnc(Cc2ccc3c(c2)OCO3)o1	i	1.1	nt	nt	-1	100	nt
Cc1cccc(OCCCC(=O)Nc2ccc(S(N)(=O)=O)cc2)c1C	i	0.9	51	136	-15	112	-2.8
CN(C(=O)CSc1nnc(-c2cccnc2)n1-c1ccccc1F)C1CCS(=O)(=O)C1 (centres undefined)	i	1.1	40	139	7	99	nt
CC1CC(=O)c2cnc(NCc3ccco3)nc2C1 (centres undefined)	i	0.96	50	117	0	104	-1.4
CC(Oc1cccc(NC(=O)c2cccs2)c1)C(=O)c1ccccc1 (centres undefined)	i	0.87	-43	163	-2	102	nt
COc1ccccc1NC(=O)CCC(=O)O	i	0.93	0	136	-12	108	-3.5
COc1ccc(/C=C2\CCCc3c2nc2ccccc2c3C(=O)OCC(=O)c2c(N)n(C)c(=O)n(C)c2=O)cc1	i	0.83	-27	113	-2	102	3.7
COC(=O)CC(NS(=O)(=O)c1cccs1)c1cccc2ccccc12 (centres undefined)	i	1	23	133	-11	110	-3.3
CC(=O)n1nc(-c2cccc(C)c2)nc1SCC(=O)Nc1ccccc1	i	0.99	-4	136	-7	102	-3.4
O=C(NCCC1=CCCCC1)C1CCC(CNS(=O)(=O)c2ccccc2)CC1 (centres undefined)	i	0.84	17	122	-12	116	-1.6
COC(=O)[C@@H]1C[C@@H]2CC[C@@H](O)C[C@@H]2N1Cc1ccc(N2CCN(C)CC2)cc1	i	0.98	nt	nt	nt	103	nt
Cc1ccc(C(=O)OCC(=O)Nc2ccc3c(c2)OCO3)cc1S(=O)(=O)N1CCOCC1	i	1	-32	203	-10	91	-0.1
c1ccc2c(c1)CCN(CCCNc1nc3ccccc3n3cnnc13)C2	i	0.86	nt	nt	-4	105	-3.9
c1csc(-c2nnc(N3CCCCCC3)c3ccccc23)c1	i	1.1	nt	nt	-10	103	-1.0
O=C(Cn1nnc(-c2ccccc2NC(=O)c2cccs2)n1)Nc1ccccc1	i	0.93	15	92	21	106	-1.2
O=C(c1cnn2c(C(F)F)cc(-c3ccccc3)nc12)N1CCCCC1c1cccnc1 (centres undefined)	i	0.96	nt	nt	nt	100	nt
Cc1ccc(Nc2nc(=O)c3cccnc3s2)c(Br)c1	i	1.3	nt	nt	nt	98	nt
CCCCC(=O)Nc1cccn2ncnc12	i	0.97	-4	20	5	114	nt
O=C(NNC1CC(=O)N(c2ccc3c(c2)OCCO3)C1=O)c1ccc(Cl)cc1 (centres undefined)	i	1	30	91	-8	105	nt
COC(=O)C1=C(C)N(c2ccc(C(=O)OC)cc2)C(=O)C1	i	0.96	-7	112	-9	100	-4.3
CN(C)S(=O)(=O)c1cccc(NC(=O)COC(=O)c2cccc(S(=O)(=O)N3CCc4ccccc4C3)c2)c1	i	1	-47	36	-6	112	-1.2
